Compound activity as filed in PubChem BioAssay.
PABP FP inh: blocks human PABP binding to poly(A) RNA; fluorescence polarization; inhibition, % at 35 µM; 290,000 tested, 1% active; AID 2014;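 active means 50% or more with normal probe brightness, or confirmed in later tests; inconclusive means above 50% with abnormal brightness, or retests that disagree; inactive means below 50% or failed in later tests; about a fifth of its hits are not listed in these tables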;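 further: calls also rest on retests at 20 µM and on dose response follow-up; controls were probe without protein and protein plus probe with vehicle; some compounds called inactive have numbers as strong as hits; many hits fall short of the cut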
Target sequence (P11940 whole entry, looked up): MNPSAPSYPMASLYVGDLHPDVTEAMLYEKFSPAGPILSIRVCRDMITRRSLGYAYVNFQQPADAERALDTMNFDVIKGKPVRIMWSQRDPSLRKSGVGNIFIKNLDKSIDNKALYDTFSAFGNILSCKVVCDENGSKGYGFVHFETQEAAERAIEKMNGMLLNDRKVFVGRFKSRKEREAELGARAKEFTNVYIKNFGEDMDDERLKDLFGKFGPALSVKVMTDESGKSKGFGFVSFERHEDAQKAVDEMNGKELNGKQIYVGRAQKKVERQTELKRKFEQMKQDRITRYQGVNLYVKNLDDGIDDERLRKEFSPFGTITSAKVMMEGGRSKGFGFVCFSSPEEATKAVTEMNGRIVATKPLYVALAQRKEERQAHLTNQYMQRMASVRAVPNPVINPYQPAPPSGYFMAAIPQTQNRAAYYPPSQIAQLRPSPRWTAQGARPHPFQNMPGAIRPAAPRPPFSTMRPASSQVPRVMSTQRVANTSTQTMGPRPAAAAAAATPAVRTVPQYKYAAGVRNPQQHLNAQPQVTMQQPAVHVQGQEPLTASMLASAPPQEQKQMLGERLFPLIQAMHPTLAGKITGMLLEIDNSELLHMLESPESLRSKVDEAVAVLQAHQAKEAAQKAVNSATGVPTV
CSC inhib: blocks cancer stem cells. cancer stem cell-like cells viability, luminescence. inhibition, % at 7.5 µM. 300,000 tested, 1.1% active. AID 2717;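 active means mean at 75% or more and at least half the replicates too; inconclusive means mean and replicates disagree; tested in HMLE shEcad cells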;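 further: 0% = median of negative and 100% = median of positive control wells; the first replicate is given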
HIV Env fusion: blocks HIV Env-driven cell-cell fusion; HeLa-JRFL Env/CEM21 cell fusion, luciferase; inhibition, % at 12.3 µM; 360,000 tested, 1.1% active; AID 651610;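 active means mean replicate inhibition score of at least 50 and every replicate individually at or above 50; inconclusive means only one of the two criteria met; inactive means mean below 50 and not all replicates reaching 50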;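 further: 0% = plate neutral controls and 100% = maraviroc near 300 nM; one replicate is shown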
UUG fidelity: yeast start codon fidelity modulation; S. cerevisiae UUG-firefly luciferase reporter, luminescence/redox ratio; activity score, % at 18.7 µM; 350,000 tested, 0.13% active; AID 602363;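 active means replicate mean at a twofold rise or more, about +100% in these data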;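 further: firefly luciferase made from a UUG start codon reports start codon fidelity; reporter light over untreated wells divided by growth signal over untreated wells; some hits fall short of that in this replicate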
MT1-MMP act inh: inhibitors of human MT1-MMP activation. P50281. HT1080 RFP-PRO-GFP cells, GFP/RFP ratio fluorescence, overnight; percent of plate control window, DMSO zero. GFP/RFP ratio change, % at 20 µM. 360,000 tested, 0.061% active;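 active means GFP/RFP ratio change of at least 30% with cell ATP level not reduced by more than half and red fluorescence within 50% of control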; further: strong numbers were not always called active
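Compound: 20 µM single dose, 1% DMSO / System: HT1080 RFP-PRO-GFP cells / Controls: DMSO and RFP-L50D-GFP cell wells / Read-out basis: GFP/RFP fluorescence ratio / Schedule: overnight compound exposure at 37 °C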
Rce1 inhib: blocks yeast Ras-converting enzyme; 290,000 tested, 0.27% active; yeast membranes, quenched prenylated peptide cleavage fluorescence; calls only; Q03530; AID 2563;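 active means fall in fluorescence gain of 50% or more versus controls, with final raw signal at or below 3038400; inconclusive means same 50% fall but final raw signal above 3038400; inactive means fall in fluorescence gain under 50%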;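 further: plate controls were neutral control wells for no effect and wells lacking membranes for full effect; tested at 10 µM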
Target sequence (Q03530 whole entry, looked up): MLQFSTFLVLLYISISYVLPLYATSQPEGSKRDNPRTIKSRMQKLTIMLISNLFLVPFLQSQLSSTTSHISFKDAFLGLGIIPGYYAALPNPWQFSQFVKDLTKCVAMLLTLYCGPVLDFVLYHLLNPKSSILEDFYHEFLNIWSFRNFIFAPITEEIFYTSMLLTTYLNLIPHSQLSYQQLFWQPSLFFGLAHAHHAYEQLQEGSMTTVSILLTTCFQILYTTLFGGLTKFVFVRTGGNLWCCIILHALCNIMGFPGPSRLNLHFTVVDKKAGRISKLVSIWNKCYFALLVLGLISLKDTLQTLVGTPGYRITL
eIF4H FP inh: inhibitors of RNA binding by human eIF4H. 290,000 tested, 0.94% active. inhibition, % at 35 µM. eIF4H fluorescence polarization binding assay;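 active means 50% or more with normal probe brightness, or confirmed in later tests; inconclusive means above 50% with abnormal brightness, or retests that disagree; inactive means below 50% or failed in later tests; about a fifth of its hits are not listed in these tables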;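 further: calls also rest on retests at 20 µM and on dose response follow-up; 0% = protein and probe with vehicle and 100% = probe without protein; strong numbers were not always called active; many hits fall short of the cut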
eIF4H FP inh retest: also measured in eIF4H FP inh; calls as there; inhibition, %; compound at 20 µM; confirmation average;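 mean of two retest wells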
PABP FP inh retest: further read-out of PABP FP inh, marked with its call; inhibition, %; compound at 20 µM; confirmation repeats;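 mean of two retest wells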
MT1-MMP act inh RFP: further read-out of MT1-MMP act inh, marked with its call; RFP signal change, %; measured here: RFP expression control read;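 0 = vehicle wells; hits needed this value within 50% of zero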
An asterisk follows results filed as active; i = inactive; ? = inconclusive; / = no result given.

SMILES	PABP FP inh	CSC inhib	HIV Env fusion	UUG fidelity	MT1-MMP act inh	MT1-MMP act inh RFP	Rce1 inhib	eIF4H FP inh	others
COc1cccc(C(C(=O)NC2CCCCC2)N(CC2CCCO2)C(=O)CNC(=O)c2ccco2)c1 (stereo not given)	0	-7	-31	-4	9	4	i	6
COc1ccc(/C=N/NC(=O)C(N)=O)c(OC)c1OC	7	-5	-15	/	-1	6	i	51	eIF4H FP inh retest=-10;PABP FP inh retest=7
CC(C)Nc1nc(NC(C)C)nc(N(C)N)n1	-4	-4	-66	/	2	1	i	2
Cc1ccc2c(c1)N(C(=O)CCC(=O)N1CCc3ccccc3C1)CCO2	1	-2	/	10	1	4	i	2
C=CCn1c(SCC(=O)Nc2ccc3c(c2)CCC3)nnc1-c1cccs1	-20	-22	-38	-14	-2	-3	i	-5
Cc1cccc(-n2c(-c3ccco3)n[nH]c2=S)c1	4	-5	/	-23	2	3	i	0
CC(C)Cc1ccc(C(C)C(=O)Nc2ccc(O)cc2)cc1 (stereo not given)	2	17	4	1	1	-11	i	11
COC(=O)c1ccc(NC(=O)CSc2nc3ccccc3c(=O)[nH]2)cc1	-2	0	-11	-4	7	-2	i	-2
NC(=O)C1CCN(C2CC(=O)N(Cc3ccc(N4CCCC4=O)cc3)C2=O)CC1 (stereo not given)	5	-11	-2	-12	4	4	i	6
CCCNC(=O)COC(=O)c1cc(C)nc2ccccc12	-15	10	22	/	-2	0	i	-2
COc1ccc2ccccc2c1/C=N/NC(=O)c1nnn(-c2nonc2N)c1CN(C)C	-3	-4	-1	-10	2	3	i	-18
CC(CNS(=O)(=O)c1ccccc1)(c1ccccc1)N1CCCCC1 (stereo not given)	1	6	4	/	1	-1	i	0
CN(CCN1CCOCC1)C(=O)c1cc(COc2ccc(F)c(F)c2)on1	9	11	/	-8	1	2	i	-2
Cc1ccc([C@H]2C[C@H](n3cc(C4CC4)nn3)[C@@H](O)CN2C(=O)C2CCCCC2)cc1	/	/	6	7	-3	-1	/	/
Cc1cccc(NC(=O)C2=C(O)c3ccccc3N(C)S2(=O)=O)c1	-3	-19	-16	-11	8	3	i	24

Reprinted from the part before: 4 compounds, then new ones.
SMILES	PABP FP inh	CSC inhib	HIV Env fusion	UUG fidelity	MT1-MMP act inh	MT1-MMP act inh RFP	Rce1 inhib	eIF4H FP inh	others
CC(CNS(=O)(=O)c1ccccc1)(c1ccccc1)N1CCCCC1 (stereo not given)	1	6	4	/	1	-1	i	0
CN(CCN1CCOCC1)C(=O)c1cc(COc2ccc(F)c(F)c2)on1	9	11	/	-8	1	2	i	-2
Cc1ccc([C@H]2C[C@H](n3cc(C4CC4)nn3)[C@@H](O)CN2C(=O)C2CCCCC2)cc1	/	/	6	7	-3	-1	/	/
Cc1cccc(NC(=O)C2=C(O)c3ccccc3N(C)S2(=O)=O)c1	-3	-19	-16	-11	8	3	i	24
CCN1CCN(c2cc(C)nc(-c3ccccc3O)n2)CC1	0	17	-20	-11	-5	-2	i	8
CCOC(=O)C1=C(N)Oc2c(oc(CO)cc2=O)C1c1ccc(F)cc1 (stereo not given)	3	8	/	-18	/	/	i	-2
O=C1CC(c2cccs2)c2ccc3ccccc3c2N1 (stereo not given)	37	9	?	-16	-3	-6	i	-2
COc1cccc(OC)c1C(=O)NC(=O)Nc1c(C)cccc1C	-1	-2	13	-11	3	1	i	-4
O=C(CN1C(=O)/C(=C/c2ccccc2F)SC1=S)NC1C=CS(=O)(=O)C1 (stereo not given)	-13	-9	-15	/	0	0	i	8
NC(=O)C1CCN(C(=O)c2ccc([N+](=O)[O-])cc2NC(=O)c2cccs2)CC1	24	/	8	-1	-5	-5	i	-1
CC(=O)N1CCN(CC(=O)Nc2cccc(S(=O)(=O)N3CCCCCC3)c2)CC1	-12	-14	-13	-6	1	1	i	6
COC(=O)CN1C(=O)COc2ccc(S(=O)(=O)NCc3ccccc3)cc21	-2	-13	2	-10	-1	1	i	3
CCC(=O)c1ccc(OCC(=O)NCC2(N3CCCCC3)CCCCC2)cc1	15	-2	19	-11	-2	2	i	4
CCOC(=O)c1c(NC(=S)NC(=O)c2ccco2)sc2c1CCCC2	-8	10	15	-8	0	0	i	-4
C[C@H](C(=O)C=[N+]=[N-])N1C(=O)c2ccccc2C1=O	-1	-4	/	/	/	/	i	-2
CCN1C(Nc2ccccc2)=NC[C@@H]1C	6	-10	-15	-9	5	2	i	0
CCNC(=O)c1cc(S(=O)(=O)N2CCSCC2)ccc1OC	9	-11	8	-2	-2	-1	i	15
COc1ccc(S(=O)(=O)NCC2CCCO2)cc1NC(=O)c1ccc(Cl)cc1 (stereo not given)	/	-15	5	2	-3	-3	i	/
O=C(CCCCl)NC(=S)Nc1ccc(CN2CCOCC2)cc1	0	13	-5	3	-3	-1	i	-8
O=C(Nc1cccc(C(=O)O)c1)/C(=C\c1ccco1)NC(=O)c1ccccc1	2	-8	-5	-10	-1	2	i	13
Cc1ccc(N(CC(=O)Nc2ccc(C)cn2)S(=O)(=O)c2c(C)nn(C)c2C)cc1	-12	11	-8	-10	11	5	i	-3
CC(C)CCNc1ncnc2c1nnn2Cc1ccccc1	1	-8	-7	-12	1	-1	/	0
Cn1c(N)c(C(=O)COC(=O)C23CC4CC(CC(C4)C2)C3)c(=O)n(C)c1=O	4	6	/	-1	1	-2	i	-11
Cc1ccc(NC(=O)C2CCN(S(=O)(=O)c3ccc4c(c3)NC(=O)CO4)CC2)cc1C	1	-11	18	-2	-3	-10	i	-7
Cc1c(NC(=O)CN2C(=O)c3ccccc3S2(=O)=O)c(=O)n(-c2ccccc2)n1C	-8	-9	/	-13	-4	-2	i	-8
COc1ccc(NC(=O)C2CC(=O)N/C(=N/N=C/c3ccccc3)S2)cc1 (stereo not given)	-3	-11	-1	/	6	3	/	3
CC1CCN(C(=O)CN(Cc2ccccc2)S(C)(=O)=O)CC1	9	-11	3	-7	-1	-2	i	6
NS(=O)(=O)c1ccc(S(=O)(=O)N(Cc2ccccc2F)CC2CCCO2)cc1 (stereo not given)	2	-7	/	-25	0	1	i	-8
O=C(O)/C=C/C(=O)N1CCN(Cc2ccc3c(c2)OCO3)CC1	11	-8	13	-3	0	7	i	2
CCOC(=O)CC1C(=O)NCCN1C(=O)c1ccc(F)cc1F (stereo not given)	2	-5	/	-5	-1	4	i	-2
COC(=O)c1cc(S(=O)(=O)N(C)C2CCCCC2)c[nH]1	8	-3	3	-2	4	6	i	13
Cc1cccc(C(=O)Nc2sc(C)c(-c3ccccc3)c2C#N)c1	-2	2	/	-16	-3	-8	i	-1
CCCNC(=O)/C=C/C(=O)O	0	-6	14	/	0	-2	i	-6
COc1cc(CCCN2C(=O)C(=O)NC[C@H]2Cc2cccc3ccccc23)cc(OC)c1OC	/	-16	15	-11	3	1	i	/
COc1ccc(/C=C(\C#N)C(=O)OCC(=O)NCc2ccccc2)cc1	62	-10	-16	-16	2	3	i	7	eIF4H FP inh retest=3;PABP FP inh retest=-2
CCN(CC)S(=O)(=O)c1ccc2oc(C(=O)Nc3ccc(OC)cc3OC)c(C)c2c1	-1	-14	?	-16	-1	-7	/	7
COC(=O)C1=C(C)NC2=C(C(=O)CCC2)C1c1cccc(C)n1 (stereo not given)	5	3	-51	-1	2	3	/	-1
Cc1ccn2c(c1)nc(=O)c1cc(S(=O)(=O)N3CCCCC3)ccc12	20	-19	-4	-11	-1	1	i	-1
COc1cc(CC(=O)OCn2nnc3ccccc3c2=O)cc(OC)c1OC	3	-2	-1	/	-10	-2	i	5
CCCC(=O)N1CCN(c2nc3ccc(Cl)cc3s2)CC1	-6	-26	-28	-4	-3	-22	i	-12
O=C(NC1CCCCC1)C1c2ccccc2C(=O)N1Cc1ccco1 (stereo not given)	0	-9	/	3	-1	3	i	-4
Cc1ccc(S(=O)(=O)N(C)C)cc1NC(=O)c1cccnc1Oc1ccccc1	4	-5	8	-18	0	-2	i	-10
Cc1ccc(OCc2n[nH]c(=S)n2-c2ccc(C)cc2)cc1	-8	-5	?	/	-1	0	i	-5
COc1ccc(OC)c(/C=C(\NC(=O)c2ccccc2)C(=O)N/N=C/c2ccc(C)s2)c1	-7	/	/	-11	-41	-2	i	3
COc1ccc(NC(=O)c2cccnc2SC)cc1OC	4	1	-4	6	4	5	i	3
Cc1ccc(C(C#N)c2ccc(C(=O)c3ccc(F)cc3)cc2)cc1 (stereo not given)	1	7	/	-2	-3	-25	i	-7
Cn1c(=O)[nH]c(NC2CCCCC2)c([N+](=O)[O-])c1=O	-7	20	-45	-6	-4	5	i	-2
CCCOc1ncnc2c1[nH]c1ccc(OC)cc12	1	17	-98	/	9	-10	/	-14
O=C(O)c1ccccc1C1Nc2ccccc2C(=O)N1CCCN1CCOCC1 (stereo not given)	-3	-14	6	-13	1	4	i	2
CCCCn1c(SCC(=O)/C(C#N)=C(\C)N)nc2ccccc2c1=O	-2	/	-19	/	1	-4	i	-4
CCOC(=O)CSc1nnc(-c2ccc3ncccc3c2)n1C	1	-9	8	/	0	0	i	-4
CCOC(=O)C1=CCN(S(=O)(=O)c2ccccc2)C1c1ccccc1 (stereo not given)	/	/	-18	11	8	5	/	/
COc1ccc(C(=O)Nc2c(Cl)cc(Cl)cc2C(=O)N2CCC(C)CC2)cc1	-6	-8	/	/	-4	-1	i	-4
CC1CC2=C(NC(=S)NC2c2ccc(F)cc2)/C(=C/c2ccc(F)cc2)C1 (stereo not given)	2	-10	2	-22	3	1	i	-11
CCOC(=O)Nc1ccc(S(=O)(=O)N2CCOCC2)cc1	-8	-10	6	3	5	7	i	-6
Cc1cc(NC(=O)OC2CCCCC2)ccc1[N+](=O)[O-]	2	-2	-152	-35	-4	-8	i	5
CCCCC(CC)C(=O)Nc1cc([N+](=O)[O-])ccc1F (stereo not given)	10	-3	18	/	2	1	i	-4
NC(=O)c1c(NC(=O)CSc2nc(N)cc(=O)[nH]2)sc2c1CCCC2	10	11	-23	/	0	1	i	16
Cc1cccc(N2Cc3ccc(Br)cc3C2)c1	/	13	-25	/	-2	-1	i	/
C/C=C(\C)C(=O)NCCN1C2=NC[C@@H](C)N2C[C@@H]1Cc1ccc(OC)cc1	0	2	-3	-15	2	-1	i	-4
CCN(CC)S(=O)(=O)c1cc(NC(=O)C2=COCCO2)ccc1Cl	/	-13	5	-10	1	-3	i	/
COCCNC(=O)Cc1c(C)c2c(cc(C)c3c(C(C)(C)C)coc32)oc1=O	-7	69	-24	0	-12	-19	i	-8
C/C(CC1(O)/C(=N/O)CCc2nonc21)=N\O (stereo not given)	1	-6	-22	-15	2	5	i	-7
Clc1cccc(Cl)c1Cn1nnc(N2CCCC2)n1	-8	-5	-31	-10	1	-3	i	2

Remaining list, next part.
SMILES	PABP FP inh	CSC inhib	HIV Env fusion	UUG fidelity	MT1-MMP act inh	MT1-MMP act inh RFP	Rce1 inhib	eIF4H FP inh	others
CC1(C)CC(=O)C=C(Nc2ccc3c(c2)CCC3)C1	-4	3	/	/	/	/	i	-1
COc1cc(OC)cc(C(=O)NCC(=O)OCC(=O)Nc2ccc(C)c(S(=O)(=O)N3CCOCC3)c2)c1	/	/	7	4	2	8	/	/
C/C(=N\Nc1ccc(S(N)(=O)=O)cc1[N+](=O)[O-])c1ccc2c(c1)OCO2	6	/	25	-47	6	-4	/	11
O=C(c1c[nH]c(C(=O)C(Cl)(Cl)Cl)c1)c1c(F)cccc1F	-13	23	0	-15	-3	-5	i	-6

Only part of the results is shown. The share of hits here may be higher or lower than overall.
